# Source: PubChem BioAssay (National Center for Advancing Translational Sciences (NCATS))
# TRPV1 PAM – human TRPV1 potentiation; potentiation, % at 8.33 µM; 0.02% of 320,000 active; TRPV1-expressing cells, Fluo-8 calcium influx, capsaicin EC20 potentiation; host cell line not named in the record; control for the full effect not named in the record; active means potentiation above 80%; inconclusive means 30% to 80%; inactive means below 30%; also: 0% is about no effect
# Target sequence (Q8NER1 whole entry, looked up): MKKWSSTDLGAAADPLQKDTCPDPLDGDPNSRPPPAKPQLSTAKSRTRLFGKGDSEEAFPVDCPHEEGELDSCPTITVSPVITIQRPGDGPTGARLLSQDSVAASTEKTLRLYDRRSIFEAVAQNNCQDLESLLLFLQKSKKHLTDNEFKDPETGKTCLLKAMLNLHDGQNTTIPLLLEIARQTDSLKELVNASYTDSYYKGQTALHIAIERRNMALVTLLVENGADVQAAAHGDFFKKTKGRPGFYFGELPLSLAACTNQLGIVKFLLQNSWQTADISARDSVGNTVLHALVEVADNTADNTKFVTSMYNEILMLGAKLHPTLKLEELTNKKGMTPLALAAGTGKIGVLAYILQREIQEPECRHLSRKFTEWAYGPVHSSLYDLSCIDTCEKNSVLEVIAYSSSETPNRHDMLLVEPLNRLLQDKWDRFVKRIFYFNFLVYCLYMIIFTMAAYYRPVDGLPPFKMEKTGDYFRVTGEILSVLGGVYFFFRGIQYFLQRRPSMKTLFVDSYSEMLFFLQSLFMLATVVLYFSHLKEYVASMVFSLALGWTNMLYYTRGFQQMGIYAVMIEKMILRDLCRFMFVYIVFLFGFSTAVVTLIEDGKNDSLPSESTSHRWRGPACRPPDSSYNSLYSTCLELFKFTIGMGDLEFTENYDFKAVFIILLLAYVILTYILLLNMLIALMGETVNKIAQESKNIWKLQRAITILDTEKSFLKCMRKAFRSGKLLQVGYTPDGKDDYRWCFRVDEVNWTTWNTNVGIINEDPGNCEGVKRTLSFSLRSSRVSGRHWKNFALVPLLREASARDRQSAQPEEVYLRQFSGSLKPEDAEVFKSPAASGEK
#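 TRPV1-expressing cells were cultured overnight at 35.5C and loaded with Fluo-8 calcium dye for 40 to 90 min at room temperature. After a 10 s baseline, compound was added and calcium influx was read kinetically for 3 min (ex 480/em 520 nm).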
# Six1-Eya2 inh – blocks human Six1 binding to Eya2 | AID 651725 | 0.56% of 360,000 active | AlphaScreen GST-Six1/His-Eya2 binding, biochemical; active compounds read low; control for the full effect not named in the record | activity change, % (no concentration beside the values); in the data active = activity change below about -65%; inconclusive = about -30% to -65%; inactive = above about -30%; also: % is scaled to controls: 0 for no effect and ±100 for the full control effect
#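 Compounds are tested against tagged Six1 and Eya2 proteins bridged by glutathione donor and nickel acceptor beads; after a one-hour incubation at 37 °C without light, AlphaScreen emission is recorded.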
# D2 PAM – potentiates the human D2 dopamine receptor allosterically; P14416; DiscoveRx D2 beta-arrestin cells, luminescence, 90 min; 100% = 57 uM dopamine signal; potentiation, % (no concentration beside the values); 0.23% of 360,000 active; AID 624464; active = potentiation of 50% or more; inconclusive = 30% to 50%; inactive = 30% or less;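 also: compound concentration not given in the record; tested on top of an EC20 dose of dopamine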
#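 PathHunter beta-arrestin assay in DiscoveRx D2 cells. Compounds were added with an EC20 of dopamine (50 nM final) for 90 min at 37 deg C. Luminescence was read 1 h after detection reagent, with 57 uM dopamine as the EC100 control.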
# TRPML1 ag – human mucolipin-1 channel agonism; Q9GZU1; TRPML1-expressing cells, Ca2+ dye fluorescence, FDSS; host cell line not named in the record; reference of the full effect not given here; activation, % (concentration not given with the values); 0.12% of 410,000 active; in the data active = activation above about 50%; inconclusive = about 30% to 50%; inactive = below about 30%; also: 0% is about no effect; the text of the record puts the active cut at 80%
#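 In this qHTS format, compounds were pin-transferred onto Ca8-dye-loaded TRPML1-DL cells induced with Tet overnight, and intracellular Ca2+ fluorescence was recorded kinetically for 110 s after a 10 s baseline. A subsequent 4uM final 54-4 (EC80) addition followed by a second 110 s read served as the antagonist phase.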
# CtBP-E1A blk – CtBP/E1A binding inhibition; AlphaScreen GST-E1A/His-CtBP binding, 1536-well; active compounds read low; control for the full effect not named in the record; activity change, % (concentration not given with the values); 0.49% of 340,000 active; AID 651724; in the data active means activity change below about -65%; inconclusive means about -30% to -65%; inactive means above about -30%; also: % is scaled to controls: 0 for no effect and ±100 for the full control effect
#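 GST-E1A and His-tagged CtBP (125 nM each as 5X stock) were preincubated with pin-transferred compound for 2 h at 37 °C in the dark, then glutathione donor and nickel acceptor beads were added for 1 h before AlphaScreen reading.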
# TRPML1 inh – inhibitors of human TRPML1 channel. 0.02% of 390,000 active. Q9GZU1. activity change, negative = inhibition, % (no concentration beside the values). TRPML1-inducible cells, Ca2+ dye fluorescence, FDSS; active compounds read low; inhibition of EC80 agonist-evoked calcium signal; in the data active means activity change below about -50%; inconclusive means about -30% to -50%; inactive means above about -30%;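 also: stimulus is agonist 54-4 at its EC80 concentration; % is scaled to controls: 0 for no effect and ±100 for the full control effect; compound concentration not given in the record; the text of the record puts the active cut at -80%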
#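 Tet-induced TRPML1-DL cells loaded with Ca8 no-wash calcium dye were read kinetically on FDSS. Compound addition was followed by EC80 agonist 54-4 (4 uM final); inhibition was read over 110 s.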
# An asterisk follows results filed as active; ? = inconclusive; / = no result given.
SMILES,TRPV1 PAM,Six1-Eya2 inh,D2 PAM,TRPML1 ag,CtBP-E1A blk,TRPML1 inh
O=C1C(Cl)=CC(=Nc2ccc(O)cc2)C=C1Cl,2.9,-17.0,2.5,0.4,-0.7,-2.1
CC(C)CCNC(=O)c1cc(C(=O)c2cc(Br)ccc2O)cn(CCC(C)C)c1=O,-4.2,5.0,11.0,1.1,-7.8,1.5
CCOP(=O)(OCC)C(O)c1ccccc1 (stereo not drawn),-17.4,-0.5,-5.7,1.5,-16.4,-12.6
CCCC12CN3CCN(C1)CC(CCC)(C3)C2=O,-1.6,4.5,2.0,-0.1,6.6,-20.2
CCCCCCC(=O)N/N=C/c1c(O)n(C(C)CC)c(=S)[nH]c1=O (stereo not drawn),4.8,-4.6,-16.9,1.3,/,-11.4
CCN(CCCl)c1cc(CN(C)C)cc(NC(=O)c2ccc(C(=O)Nc3cc(CN(C)C)cc(N(CC)CCCl)c3)cc2)c1,/,?,-28.8,-0.3,-5.7,5.2
O=C(COC(=O)Cc1ccccc1)NNC(=O)c1ccc([N+](=O)[O-])cc1,-17.1,2.0,2.4,2.4,-5.3,37.2
c1ccc(CC2CCCCN2)cc1 (stereo not drawn),2.6,-5.0,-4.6,-0.5,1.4,-13.3
COC(=O)C1=C(c2ccc(C(C)=O)cc2)C[C@@H]2CC[C@H]1N2C(=O)NCc1ccc(C(F)(F)F)cc1,-10.2,1.1,-10.2,23.9,/,6.3
C[C@H](CO)N1C[C@H](C)[C@@H](CN(C)C(=O)Oc2ccc3ccccc3c2)OCc2cn(nn2)CCCC1=O,/,0.8,13.4,0.3,-8.9,-6.9
CCC1(C)OC(c2ccccc2)=C/C(=C/C=C2C(=O)NC(=O)NC2=O)O1 (stereo not drawn),-16.4,7.2,-15.4,27.9,/,-0.1
CCOP(=O)(OCC)C(NC(=O)c1ccccc1)=C(Cl)Cl,3.6,24.8,-8.6,0.2,3.8,2.7
CC(Cc1ccccc1)N1Cc2ccccc2C1 (stereo not drawn),-36.1,-5.6,-7.2,-0.5,/,3.8
Cc1nc2c(C(=O)N3CCC4(CC3)OCCO4)cnn2c(C)c1Cc1cccc(Cl)c1,14.8,-2.7,4.3,-0.3,4.4,-6.9
O=[N+]([O-])c1ccc(N2CCCCCC2)c2nonc12,-19.5,-6.4,-8.0,110.2*,-28.4,-21.4
Cc1cccc(-n2c(O)c(C=NC34CN5CN(CN(C5)C3)C4)c(=O)[nH]c2=O)c1,-29.2,1.4,22.9,0.1,1.5,-0.4
COc1ccc(OC(=O)N(C)C)c(CN(C)C)c1,2.5,6.2,-4.8,-0.9,5.4,-14.3
COC(=O)C1=C(c2ccccc2OCc2ccccc2)C[C@@H]2CC[C@H]1N2C(=O)NCc1ccc(C(F)(F)F)cc1,-2.1,-8.2,-3.9,1.7,-1.3,1.3
O=S(=O)(c1ccc(Cl)cc1)N1CN2CCN(C2)C1,0.1,-1.5,-3.7,-0.6,2.0,-11.3
CC1=CC(O)C(O)C2(C)C1CC1OC(=O)C(O)C3C(C)C(O)C4(O)OCC13C42 (stereo not drawn),/,0.7,-10.5,-0.5,1.7,19.4
CCCCC(=O)N/N=C/c1c(O)n(CCCC)c(=S)[nH]c1=O,/,-73.6*,-12.7,-0.7,-65.8*,-5.4
O=c1c2ccccc2nc(Cc2ccccc2)n1-c1cccc(O)c1,?,2.0,-20.7,-0.8,2.6,-3.3
CCC(=O)OC1(Cc2ccc(CC)cc2)CC(C)N(C)CC1C (stereo not drawn),0.3,0.0,-6.6,0.3,0.0,2.3
Cc1cc([N+](=O)[O-])c2ccccc2[n+]1[O-],23.4,1.2,-11.7,3.1,/,35.2
CC(=O)c1ccc2c(c1)C1C(Cl)C(Sc3ccccc3[N+](=O)[O-])CC1C(c1ccccc1[N+](=O)[O-])N2 (stereo not drawn),7.8,-26.0,28.1,-0.6,-28.3,-2.0
C1CCC2CCCCC2C1 (stereo not drawn),1.9,3.0,-1.6,-0.3,5.2,4.4
COC(=O)C(O)(c1ccc(N(C)C(=O)OC(C)C)cc1)C(F)(F)F (stereo not drawn),1.1,-1.8,-13.9,-0.1,-18.9,-27.4
COc1ccc(CC(=O)N2CCN(C)CC2)cc1OC,5.7,5.2,-4.4,-0.4,34.6,-1.5
CCOC(=O)c1ccccc1NC(=O)c1c(O)[nH]c(=S)[nH]c1=O,/,-9.3,-5.0,-0.9,-3.4,0.4
NC(=O)Nc1cccc(C(F)(F)F)c1,-2.9,1.8,-6.6,-0.6,4.5,-0.9
Nc1ccc2ccc3cccc[n+]3c2c1,-13.6,-29.1,4.2,86.7*,-26.4,-7.1
CN(C)C(=O)Oc1ccc(OCc2nc3ccccc3[nH]2)cc1,4.3,3.1,-7.8,-0.6,9.5,1.9
NC1C2CN3CCN(C2)CC1(c1ccccc1)C3 (stereo not drawn),/,4.3,-1.2,/,1.7,/
COc1ccc(N2CC2c2ccncc2)cc1 (stereo not drawn),3.3,2.7,-1.5,0.7,-1.3,12.3
CS(=O)(=O)c1ccc(C2=C(CNC(=O)c3nccs3)[C@H]3CC[C@@H](C2)N3Cc2ccco2)cc1,/,-2.8,1.5,0.0,-1.9,3.7
Nc1c(C(=O)NCCCc2ccccc2)c2nc3ccccc3nc2n1Cc1cccs1,4.6,22.2,-11.1,0.2,9.9,-4.8
O=C(O)C1Cc2ccccc2N2CCCC12 (stereo not drawn),-5.3,15.9,11.3,-0.5,0.0,10.9
Cc1cccnc1-n1c(C)nc2ccccc2c1=O,-17.2,-4.7,-4.7,-0.1,-2.8,-16.5
CCOCN(C(=O)CCl)c1c(C)cccc1CC,-2.7,4.1,1.8,0.7,14.0,0.1
C/C=C1/C[N+]2(C)CCC34C(=C(C=O)[C@H]1C[C@@H]32)Nc1ccccc14 (stereo partly drawn),14.5,1.2,-3.9,-0.8,3.4,13.8
Cc1ccc(OC(=O)N(C)C[C@@H]2OCc3cnnn3CCCC(=O)N([C@@H](C)CO)C[C@@H]2C)cc1,/,7.0,-1.6,-0.1,2.2,10.2
COc1ccc(NP(=O)(Oc2ccc(Cl)cc2)Oc2ccc(Cl)cc2)cc1OC,5.4,-27.6,-11.5,4.8,3.1,0.1
CN1CCN(Cc2ccccc2C(F)(F)F)CC1,28.3,-1.3,-7.2,-0.9,4.6,7.7
Cc1nc2ccccc2c(=O)n1-c1cc([N+](=O)[O-])cc([N+](=O)[O-])c1,3.5,-2.7,7.1,2.8,5.6,9.2
Cn1cc(C(=O)OCC(=O)NC2CCCCC2)c2ccccc21,-5.5,3.4,-1.4,-0.2,1.8,-6.5
NS(=O)(=O)c1ccc(N=Cc2c(O)n(C3CCCCC3)c(=O)n(C3CCCCC3)c2=O)cc1,-7.6,-4.6,-2.3,0.0,-0.6,-5.0
COC(=O)C1=C(c2ccc(S(C)(=O)=O)cc2)C[C@@H]2CC[C@H]1N2C(=O)N1CCCCC1,/,5.4,-5.9,0.2,5.0,-16.7
COc1ccc(CCn2c(O)c(/C=N/N3CCOCC3)c(=O)[nH]c2=O)cc1OC,-3.6,-7.5,-14.0,-0.8,/,-5.5
Cc1ccc(C(O)(c2ccc(C)c(C)c2)C2CN3CCC2CC3)cc1C (stereo not drawn),-10.9,-10.1,-8.2,0.9,-13.4,26.1
COC1=CC(=O)OC(CCc2ccc3c(c2)OCO3)C1 (stereo not drawn),/,-1.8,-45.9,/,6.2,/
CC(C)Sc1nnc([C@@H](N)Cc2ccccc2)o1,6.6,5.6,2.0,-0.6,-5.7,-5.5
C/C(=N\N1CCCCCC1)c1c(O)n(C2CCCCC2)c(=O)[nH]c1=O,/,3.0,-12.5,1.6,1.2,22.2
O=[N+]([O-])c1c(Cl)c(Cl)c(Cl)c(Cl)c1Cl,/,0.1,-1.3,0.1,-2.0,7.6
COC(=O)[C@]12OC[C@]34C([C@@H](O)[C@@H]1O)[C@]1(C)CC(=O)C(O)=C(C)[C@@H]1C[C@H]3OC(=O)[C@H](O)[C@@H]24 (stereo partly drawn),4.7,0.4,-26.3,-1.0,-0.9,13.9
COc1ccc(-n2c(-c3ccccc3)nc3ccccc3c2=O)cc1,4.1,-2.8,2.9,1.1,3.1,2.9
C=C(C)CSc1nnc([C@@H](N)Cc2ccccc2)o1,-6.4,12.0,-6.4,-0.4,5.4,14.7
COC(=O)C1=C(c2ccccc2OCc2ccccc2)C[C@@H]2CC[C@H]1N2C(=O)NCCc1ccc(F)cc1,-11.5,-0.4,-68.5,1.6,0.0,23.0
Cc1ncoc1C(=O)NCC1=C(c2ccc3ccccc3c2)C[C@@H]2CC[C@H]1N2Cc1ccco1,/,-7.7,-5.0,0.1,-2.4,7.0
CC1OC(OC2C(O)CC(OC3C(O)CC(OC4CCC5(C)C(CCC6C5CCC5(C)C(C7=CC(=O)OC7)C(O)CC65O)C4)OC3C)OC2C)CC(O)C1O (stereo not drawn),/,-0.7,-7.7,-0.4,0.7,-13.0
CN1CCN(C(=O)COc2ccc(S(=O)(=O)NC3CCCCC3)cc2Cl)CC1,2.2,1.3,3.6,0.3,1.1,10.3

# The list goes on:
SMILES,TRPV1 PAM,Six1-Eya2 inh,D2 PAM,TRPML1 ag,CtBP-E1A blk,TRPML1 inh
C=CC1CN2CCC1CC2C(O)c1ccnc2ccccc12 (stereo not drawn),/,0.4,-31.1,/,-1.5,/
CC/C(=N\NC(=O)c1ccccc1O)c1c(O)n(Cc2ccccc2)c(=O)[nH]c1=O,-6.3,-9.7,2.8,/,-5.7,/
N#CSCC(=O)N1c2ccccc2CCc2ccccc21,1.3,-11.2,-0.5,0.4,-20.2,-3.3
Cc1cc2c(C(F)(F)F)cc(=O)oc2c2c1NCCC2,-7.3,7.9,2.8,?,7.7,-1.6
Cc1cc(Cl)ccc1OCC(=O)O,3.8,1.0,-27.5,-0.5,6.6,-0.4
O=C(COc1ccc2ccccc2c1)N1CCN(Cc2c[nH]c3ccccc23)CC1,-9.0,-1.4,-35.7,-0.7,3.8,2.8
COc1ccc(C(C)=O)cc1CN1CC=C(c2ccccc2)CC1,-1.8,-0.6,-10.3,2.3,-1.5,-6.7
COc1ccc(C(=O)O)cc1OC,/,3.0,-6.0,/,6.7,/
COc1cc(/C=C(/C)[N+](=O)[O-])ccc1OCc1ccccc1Cl,3.9,4.4,-15.8,11.0,1.3,18.7
CCN(CC)C(=O)COc1cc(C)cc2oc(=O)c3c(c12)CCCC3,4.5,-9.7,1.6,1.6,0.0,7.3
O=c1[nH]c2ccccc2n1C1CCN(C(c2ccccc2OC(F)(F)F)c2nnnn2-c2ccc3c(c2)OCCO3)CC1 (stereo not drawn),/,-14.3,61.2*,-0.6,-18.9,/
CC(Cc1ccc(O)cc1)NCC(O)c1ccc(O)c(O)c1 (stereo not drawn),/,-26.9,-5.4,-0.1,4.0,-5.6

# A stretch taken from the entries so far:
SMILES,TRPV1 PAM,Six1-Eya2 inh,D2 PAM,TRPML1 ag,CtBP-E1A blk,TRPML1 inh
C=CC1CN2CCC1CC2C(O)c1ccnc2ccccc12 (stereo not drawn),/,0.4,-31.1,/,-1.5,/
CC/C(=N\NC(=O)c1ccccc1O)c1c(O)n(Cc2ccccc2)c(=O)[nH]c1=O,-6.3,-9.7,2.8,/,-5.7,/

# Some of the compounds tested; the hit share may differ from the screen's.
